Autofluor counter – compound fluorescence in toxin protease inhibitor counterscreen. fluorescence intensity (test concentration not listed). compound autofluorescence counterscreen, microsphere flow cytometry; stronger effect = higher value. hit rate 3.1% among 360,000;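 active = at least 3 SD above the mean of all compounds, about 16000 in these data; inconclusive = too few beads counted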;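 note: 100 nL of 1 mM stock went into each well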
BJeLR viability – kills HRASV12-expressing BJeLR cells | inhibition, % (no concentration beside the values) | hit rate 0.17% among 300,000 | AID 1554 | BJeLR (HRASV12) viability, CellTiter-Glo ATP luminescence, 48 h; reference of the scale not given here;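 active = replicate mean above 50%; inconclusive = above 50% but judged a plate artefact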;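 note: 50 nL library stock added to about 25 µL; numbers are from one replicate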
RN4220 kill – S. aureus RN4220 growth inhibition | AID 1259311 | inhibition, % (concentration not given with the values) | hit rate 0.33% among 330,000 | OD600, 16 h;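 active = z-score of -3 or lower and OD600 up to 0.18 on both plates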;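 note: plate controls were untreated cells for no effect and reference antibiotic for full effect; stock transfer was 100 nL into about 80 µL; one replicate is shown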
PrP 5UTR inh – suppresses PrP 5' UTR mRNA reporter expression; cell-based PrP 5' UTR mRNA reporter, plate reader; inhibition, % (no concentration beside the values); hit rate 0.35% among 340,000;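 active = every replicate at 50% or more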;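 note: 0 = median of the neutral control wells; tested in H4 reporter cells; numbers are from one replicate; inactives centre near -14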
Mtb hypoxia inh – Mtb hypoxia fluorescent reporter inhibition; M. tuberculosis hypoxia-regulated fluorescent reporter, fluorescence; fluorescence inhibition, % (concentration not given with the values); hit rate 0.1% among 300,000; AID 1159583;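 active = 35 to 45% if threefold the growth effect, above 45% if 1.5-fold the growth effect; inactive = the rest, general growth blockers included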;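 note: wells of about 50 µL received 100 nL stock; 0% = vehicle wells and 100% = reference inhibitor wells; whole bacteria with a GFP reporter of the hypoxia response; strong numbers were not always called active; many hits fall short of the cut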
ugtP null kill – growth inhibition of S. aureus ugtP deletion strain. growth inhibition, % (no concentration beside the values). hit rate 0.54% among 330,000. S. aureus RN4220 ugtP deletion, OD600 growth, 16 h; some inactives read as strong as hits;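 active = z-score under -3 and OD600 up to 0.15 on both plates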;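 note: plate controls were untreated wells for no effect and antibiotic for full effect; wells of about 80 µL received 100 nL stock; the first replicate is given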
Mtb hypoxia inh growth – recorded beside Mtb hypoxia inh, whose call it bears; growth inhibition, %; measured here: M. tuberculosis growth (absorbance);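 0% = vehicle and 100% = reference antibiotic; read after six days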
An asterisk follows results filed as active; ? = inconclusive; / = no result given.

SMILES | Autofluor counter | BJeLR viability | RN4220 kill | PrP 5UTR inh | Mtb hypoxia inh | Mtb hypoxia inh growth | ugtP null kill
O=C(c1ccc(S(=O)(=O)NCC2CCCO2)cc1)N1CCc2ccccc21 (stereo unspecified) | 3450 | 6.7 | 6.2 | -16.0 | -2.0 | -1.4 | -0.6
CCCc1nnc(SCCSc2nnc(CCC)n2N)n1N | 8970 | -6.3 | 4.6 | -4.1 | -2.9 | 0.3 | 3.7
Cc1ccc(NC(=O)COC(=O)[C@@H]2CCCN2C(=O)c2cccs2)cc1S(=O)(=O)N(C)C | 4014 | 2.7 | 1.2 | -2.0 | 7.7 | -10.2 | -2.7
COc1cccc(/C=N/n2c(C3CCCCC3)n[nH]c2=S)c1 | 4141 | -4.7 | / | -15.9 | / | / | /
CCn1cc(CN2CCC(C(=O)Nc3cccc(-c4cccc(Cl)c4)c3)CC2)c(C)n1 | 5869 | -4.5 | -5.5 | 1.5 | 9.5 | 15.6 | -27.0
CCOc1ccc(S(=O)(=O)NCc2csc(C)n2)cc1 | 10840 | -5.7 | 3.7 | -10.5 | 13.9 | 7.4 | 2.3
CCOC(=O)C1CCN(C(=O)c2cccnc2Oc2ccc(Cl)cc2)CC1 | 4138 | -6.3 | 4.1 | -27.2 | 5.3 | -6.0 | 2.8
Cc1cc(C)cc(Oc2ccccc2/C=C\C(=O)O)c1 | 8181 | -1.2 | 13.6 | -9.2 | 5.7 | 4.0 | -16.6
Cc1ccc(C)c(N2CCN(S(=O)(=O)c3cn(C)cn3)CC2)c1 | 5833 | 7.5 | -3.4 | -1.5 | -8.6 | -16.9 | -4.2
CCCc1cc(=O)[nH]c(SCC(=O)N2CCN(S(=O)(=O)c3ccc4ccccc4c3)CC2)n1 | 1969 | 3.3 | 7.6 | -11.1 | / | / | 4.2
O=C1NC(=Nc2cccc(O)c2)S/C1=C\c1cccnc1 | 5518 | 7.0 | / | -17.0 | / | / | /
Cc1cccc(N2CCN(S(=O)(=O)c3ccc4c(c3)NC(=O)C(C)S4)CC2)c1C (stereo unspecified) | / | 6.2 | -3.5 | -11.9 | 5.2 | 2.4 | -14.8
Cc1ccc(NC(=O)CN2CCOCC2)cc1 | 3881 | -1.7 | 4.4 | -9.4 | 7.2 | 9.6 | 3.2
C/C(=N\NC(=O)c1c(Cl)cnn1C)c1ccc(NC(=O)c2ccc(Br)o2)cc1 | 5724 | -4.4 | / | -38.7 | / | / | /
Cc1ccc(-c2cc3ccccc3nc2N)cc1 | 3498 | -1.0 | -1.0 | -93.1 | -19.6 | -5.8 | 8.3

Reprinted at random: 4 records from the list.
SMILES | Autofluor counter | BJeLR viability | RN4220 kill | PrP 5UTR inh | Mtb hypoxia inh | Mtb hypoxia inh growth | ugtP null kill
COc1cccc(/C=N/n2c(C3CCCCC3)n[nH]c2=S)c1 | 4141 | -4.7 | / | -15.9 | / | / | /
Cc1cc(C)cc(Oc2ccccc2/C=C\C(=O)O)c1 | 8181 | -1.2 | 13.6 | -9.2 | 5.7 | 4.0 | -16.6
CCCc1nnc(SCCSc2nnc(CCC)n2N)n1N | 8970 | -6.3 | 4.6 | -4.1 | -2.9 | 0.3 | 3.7
Cc1ccc(NC(=O)COC(=O)[C@@H]2CCCN2C(=O)c2cccs2)cc1S(=O)(=O)N(C)C | 4014 | 2.7 | 1.2 | -2.0 | 7.7 | -10.2 | -2.7

(next part)
SMILES | Autofluor counter | BJeLR viability | RN4220 kill | PrP 5UTR inh | Mtb hypoxia inh | Mtb hypoxia inh growth | ugtP null kill
O=C(Nc1ccc2c(c1)CCC2)c1ncoc1-c1ccccc1F | 5281 | -26.1 | -2.4 | -17.7 | -6.3 | -4.8 | 37.3
Cc1c(OCC(=O)N2CCC(C(N)=O)CC2)ccc2c3c(c(=O)oc12)CCCC3 | 5242 | -1.9 | 0.1 | -19.9 | / | / | 0.2
COC(=O)c1ccc(CSc2nnc(NCc3ccccc3)s2)o1 | 5475 | 2.1 | -0.6 | -23.4 | / | / | 5.7
Cc1ccc(SCc2c(-c3ccccc3)nn(C)c2Cl)cc1 | 2478 | -9.4 | -3.6 | 3.2 | / | / | 67.3
CC(CCc1ccco1)NC(=O)c1cccc2c1C(=O)N(C1CCCCC1)C2 (stereo unspecified) | 2709 | -6.8 | / | -2.0 | / | / | /
CN(Cc1nc(CC2CC2)no1)CC12CC3CC(CC(C3)C1)C2 | 4024 | -10.4 | -0.4 | -12.3 | 5.4 | 11.0 | 21.7
COCCN(C(=O)CSc1nnc(C)n1-c1ccc(C)cc1)c1c(N)n(Cc2ccccc2)c(=O)[nH]c1=O | 17749* | -0.9 | 3.5 | -7.6 | 8.2 | -4.9 | 4.7
Cc1ccc(C(=O)N(C)CCOc2ccccc2)cc1S(=O)(=O)N1CCCCC1 | 4300 | / | 7.1 | -15.1 | 10.3 | 6.2 | 2.5
FC(F)(F)c1ccc(C2C3CN(CC4CCCCC4)C(c4ccccc4)C34CC2(c2cccnc2)C4)cc1 (stereo unspecified) | / | / | -5.8 | / | 10.4 | 16.5 | -3.4
CCN(CC)C(=O)Oc1cc(COC)nc(-c2ccccc2)n1 | 6159 | -4.8 | 4.5 | 2.6 | 16.9 | 7.5 | 15.4
Cc1nnc2n(C3CCCCC3)c(=O)c3c4c(sc3n12)COC(C)(C)C4 | 2444 | 9.0 | 2.6 | -14.9 | 9.9 | 5.4 | -2.1
COc1ccccc1CCNC(=O)C1CCC(=O)N(C2CC2)C1 (stereo unspecified) | 5464 | 6.0 | 3.1 | -7.1 | 5.9 | 4.9 | 3.2
CC(=O)c1cccc(N(C(=O)c2ccccn2)C(C(=O)NC2CCCCC2)c2ccccc2)c1 (stereo unspecified) | 5075 | -11.4 | -1.4 | -27.3 | 2.9 | 11.0 | 14.5
Cc1ccc2c(c1)N(C(=O)CCC(=O)N1CCC3(CC1)OCCO3)CCO2 | 5406 | 0.3 | 2.8 | -3.9 | 0.6 | 6.9 | 8.5
O=C(COc1ccc(Cl)cc1Cl)Nc1cccnc1 | 3361 | 0.5 | 6.6 | -126.1 | 3.0 | 7.1 | 3.3
Cc1cc2c(OCC(O)CNC3CCCCC3)cccc2[nH]1 (stereo unspecified) | 4689 | 3.2 | 1.9 | -21.2 | 1.0 | -7.0 | 0.0
CCOc1ccc2nc(N3CCC(C(=O)N4CCC5(CC4)OCCO5)CC3)sc2c1 | 9121 | 5.0 | -5.2 | -15.1 | 6.3 | 14.8 | 3.3
O=C(Cn1cnc2ccccc2c1=O)NCc1ccc2c(c1)OCO2 | 2649 | / | -18.8 | -15.5 | 24.8 | -22.9 | 2.4
O=C(NC(=S)NNC(=O)c1cccs1)c1ccco1 | 23561* | -0.5 | 15.7 | -46.3 | -2.5 | -2.2 | -12.6
Cc1cccc(Oc2ncnc(N)c2[N+](=O)[O-])c1 | 1919 | 3.9 | 4.2 | -6.8 | 6.4 | 7.9 | 8.4
Cc1ccc(N2C(=O)NC(=O)/C(=C\C=C\c3ccco3)C2=O)cc1 | 5853 | 22.0 | 1.6 | -37.1 | 3.9 | 2.9 | -2.4
COc1ccc(-c2nsc3c(N4CCCC4)ncnc23)cc1 | 3442 | 4.5 | 5.7 | 43.6 | 10.8 | 15.6 | 2.2
CCc1c(C(C)S(=O)(=O)c2ccc(C)cc2)[nH]c(=O)n1-c1ccc(C)cc1 (stereo unspecified) | 4124 | -0.7 | -3.9 | -22.9 | -2.9 | 5.5 | 0.0
N#CCCn1cc(C=C(C#N)C#N)c(-c2ccc(Cl)cc2)n1 | 3871 | 2.9 | 0.5 | -10.0 | 1.2 | -5.9 | -3.4
Cc1cc(C)cc(N(CC(=O)N2CCCC2)S(C)(=O)=O)c1 | 3638 | 6.3 | 3.0 | -0.4 | 9.8 | 4.2 | 4.6
CC(C)Cn1c(=O)n(C)c(=O)c2[nH]cnc21 | 5744 | -2.2 | 3.8 | -24.7 | -0.9 | 0.8 | 0.8
CCCC(=O)N=C1SC2CS(=O)(=O)CC2N1c1ccc(CC)cc1 (stereo unspecified) | 2871 | 5.7 | -14.5 | 1.4 | 3.0 | 0.5 | -5.0
COCCNC(=O)c1ccc(C2SCC(=O)N2Cc2ccco2)cc1 (stereo unspecified) | 2406 | 1.0 | 7.6 | -14.8 | 10.0 | 2.2 | 6.1
O=C(Nc1ccc2[nH]ncc2c1)C1CCC1 | 3748 | -2.2 | 4.8 | -5.4 | -1.1 | -5.4 | 9.7
COc1ccc(CNC(=S)NN=C(C)c2ccc(OC)cc2)cc1 | / | / | 2.7 | / | 11.0 | -5.0 | 1.5
CCNc1nc(C)c(CN(C(C)=O)c2ccccc2)nc1C#N | 2711 | -2.6 | 8.5 | -7.1 | 3.7 | 3.8 | -1.0
CCCCN(CC)S(=O)(=O)c1ccc(C(=O)Nc2nnc(-c3cccs3)o2)cc1 | / | 2.6 | 92.9* | / | -6.7 | -2.1 | 94.7*
COc1ccc(NC(=C2CCCC2=O)C2CCCCC2)cc1 | / | / | -8.2 | / | 3.1 | 4.0 | -9.1
O=C(OCc1ccccc1)c1cn(-c2ccccc2)nc1-c1ccncc1 | ? | 3.0 | 5.7 | -9.1 | 11.9 | 7.4 | -11.5
CCCn1c(N)c(N(CCOC)C(=O)c2cc(C)cc(C)c2)c(=O)[nH]c1=O | 3629 | 7.1 | 1.1 | -24.4 | 5.8 | -4.3 | 12.6
COc1ccc(CCN(C)CC(O)COc2ccc(C(C)=O)cc2OC)cc1OC (stereo unspecified) | 3830 | -0.9 | 1.2 | -24.2 | 0.9 | 5.6 | 5.0
CC(Oc1ccc2cc(-c3ccccc3)c(=O)oc2c1)C(=O)NCC1CCC(C(=O)O)CC1 (stereo unspecified) | 4166 | -1.3 | -3.1 | -11.0 | / | / | -7.5
NC(=O)c1ccc(C(=O)Nc2ccc([As](=O)(O)O)cc2)cc1 | / | -5.4 | 1.5 | / | 13.8 | 14.1 | 2.4
Clc1ccc(N2N=C(c3cccs3)CC2c2ccco2)cc1 (stereo unspecified) | 2332 | -10.3 | -7.7 | 0.9 | / | / | 48.0
Fc1ccccc1NC(=S)NCc1ccc2c(c1)OCO2 | 2039 | -11.0 | -0.9 | -29.9 | 10.9 | 4.3 | 11.0
Cc1ccc(S(=O)(=O)N2CCC(C(=O)NCCCN3CCOCC3)CC2)cc1 | 4898 | 12.8 | 2.6 | -9.5 | 3.1 | -4.4 | 6.0
CCc1cc2c(N3CCN(c4ccccc4)CC3)ncnc2s1 | 3634 | 0.0 | 7.3 | -2.4 | -5.3 | 6.7 | -1.4
O=C(CCC1CCCCC1)NCCN1C2=NCC(Cc3ccc(O)cc3)N2CC1Cc1ccc(O)cc1 (stereo unspecified) | / | / | -0.8 | / | -4.2 | 13.7 | -3.4
CCOc1ccccc1N=C1SCCCN1C | 10801 | 1.5 | 4.0 | -15.7 | -5.1 | 10.2 | 1.3
CN(C)S(=O)(=O)N1CCCN(S(=O)(=O)N(C)C)CC1 | 9557 | -3.9 | 4.1 | -38.3 | 7.6 | 1.3 | -4.6
CC(C)(C)C(=O)NC(=S)NNC(=O)c1sc2ccccc2c1Cl | 8901 | 16.2 | 93.9* | -18.5 | -11.1 | 2.4 | 97.4*
CCC(C)Sc1ccc([C@H]2N[C@@](C)(C(=O)OC)[C@H]3C(=O)N(CC)C(=O)[C@@H]23)cc1 (stereo partly specified) | 3504 | 5.1 | / | -14.4 | / | / | /
COc1ccc(CCN2C(=O)N[C@@H](C(C)C)C2=O)cc1 | 3798 | -6.3 | 5.2 | -25.8 | 8.1 | 7.0 | 6.8
CC(=O)C1=C(O)C(=O)N(c2ccc(C)cc2)C1c1ccccn1 (stereo unspecified) | 3479 | -0.9 | 2.8 | -0.8 | / | / | 1.5
Cc1nn(C)c(=S)n1-c1ccc(Cl)cc1 | 5192 | -4.0 | 7.5 | -22.2 | 14.0 | 15.1 | 3.3
CCOC(=O)c1c(CN2CCN(Cc3ccccc3)CC2)n(C)c2cc(Br)c(OC)cc12 | 3945 | 5.4 | -3.9 | -14.1 | -3.1 | 12.2 | -8.3
COc1ccc(-n2nnc3c(=O)n(CC(=O)Nc4ccc5c(c4)OCCO5)cnc32)cc1OC | 5857 | -0.5 | -0.2 | -2.7 | 12.2 | 5.4 | -3.0
Cc1ccc(NC(=O)C2CCCN(S(=O)(=O)c3cccs3)C2)cc1 (stereo unspecified) | 4781 | -0.4 | -1.7 | -20.3 | / | / | -0.3
Cc1ccc(OCC(=O)Oc2cccc(C)c2C)cc1 | / | -4.7 | 3.1 | -20.0 | 2.4 | -4.5 | 2.8
